Assay outcomes deposited in PubChem by National Center for Advancing Translational Sciences (NCATS).
HTT promoter inh = inhibitors of huntingtin promoter activity; 48,000 tested, 0.93% active; Potency, µM (top dose mostly 57.5 µM), without a hit: top-dose activity change, negative = inhibition, most hits filed as inhibitors; HEK293 HTT promoter firefly luciferase reporter (activity 0% = vehicle and -100% = no light), 24 h; active = well fitted inhibition curve with a large enough effect; inconclusive = small, poorly fitted or top-dose-only effect; inactive = no such curve, though single readings can be large or run the other way; note: nearly all actives have a fitted effect of over 50% in size
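Firefly luciferase readout (Dual-Glo, 10 min RT) after 24 h, 37 °C compound exposure (final up to 57.5 uM) of HEK293 reporter cells cultured 24 h beforehand; PTC124 at 50 uM final as control inhibitor; activity scaled vehicle 0%, zero RLU -100%.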
PMP22 txn prim = PMP22 gene transcription modulation. S16 Pmp22-F2sN Schwann cells (luciferase reporters placed in the Pmp22 gene), FLuc/NLuc coincidence luminescence, 24 h. Potency, µM (doses to about 57.5 µM), inactives show top-dose activity change, negative = inhibition, actives largely listed as inhibitors. 43,000 tested, 2% active. AID 1508649; active = clear falling dose curves in both reporters; inconclusive = both reporters move, but less clearly or upward; inactive = either reporter flat; the % is the NLuc reporter signal; note: % is set by controls: 0 for no effect and ±100 for the full control effect; some results filed as inactive show a strong effect at the top dose
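Luminescent read-out of sequential FLuc and NLuc signals from a reporter embedded in the Pmp22 3' UTR of S16 Schwann cells, taken after 24 h compound exposure at 37C; compounds reducing both signals score as inhibitors of expression.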
* hit, by the source's call; u = inconclusive; x = not tested or not shown; [ ] = dose if it differs, or a comment. Potency is the fitted concentration of half-maximal effect. An excerpt (hit frequency here may not be typical).

| compound | HTT promoter inh | PMP22 txn prim |
| --- | --- | --- |
| CC(=O)N1CCc2c(sc3c2c(=O)n(-c2ccc(C)cc2)c(=O)n3Cc2ccccc2C)C1 | -24% | -75% |
| CCN(CC)C(=O)c1sc2c(c1C)c(=O)n(-c1ccc(C)c(C)c1)c(=O)n2Cc1cc(=O)n2ccccc2n1 | -5% | -2% |
| Cc1ccc(-n2c(=O)c3c4c(sc3n(CC(=O)Nc3cccc(Cl)c3)c2=O)CCCCC4)cc1C | -10% | 16% |
| COC(=O)c1cc2occc2n1CC(=O)Nc1ccc(N(C)C)cc1 | 7% | 46% |
| Cc1ccc(Cc2nc3ccccc3nc2SCC(=O)N2CCCc3ccccc32)cc1 | -2% | u |
| CCN1CCN(CCCNC(=O)c2cc3c(s2)-c2ccccc2OC3)CC1 | 12% | u |
| CC(C)Oc1ccc(C(=O)N2CCC(c3nc4ccccc4s3)CC2)cc1 | -20% | 0% |
| CCOC(=O)c1ccccc1NC(=O)c1cnn(-c2ccc(OC)cc2)c1C1CCN(C(=O)OC(C)(C)C)CC1 | -3% | -1% |
| Cn1ncc(C(=O)N2CCN(c3ccc(F)cc3)CC2)c1C1CCN(C(=O)OC(C)(C)C)CC1 | -9% | -26% |
| CCOc1ccc(CCNC(=O)c2cn(-c3cccc(OC)c3)c(=O)c3ccccc23)cc1 | -8% | 9% |
| O=c1c2oc3ccccc3c2n(Cc2ccc(F)cc2)c(=O)n1Cc1ccco1 | -9% | -10% |
| CCCn1c2ccccc2c2cnn(CC(=O)NCCN(CC)CC)c(=O)c21 | -5% | -18% |
| Cc1cccc(-c2cc(NC(=O)COc3ccccc3F)n(-c3ccccc3)n2)c1 | 14% | u |
| CC(Oc1ccccc1)C(=O)Nc1nc2ccc(S(N)(=O)=O)cc2s1 (configuration not stated) | -14% | -3% |
| CCc1nnc(SCC(=O)Nc2cc(OC)ccc2OC)nc1CC | -22% | -2% |
| Cc1ccc(NC(=O)CN(C)S(=O)(=O)c2cccc3cccnc23)c(C)c1 | -7% | -28% |
| CC(C)=CCOc1ccc(/C=C/C(=O)c2ccc(OCC=C(C)C)cc2OCC(=O)O)cc1 | 3% | x |
| CCOc1ccc(OCC)c(Nc2nc3ccccc3c3nnc(C)n23)c1 | 18% | -2% |
| CCN(C(=O)c1sc2cc(OC)ccc2c1Cl)c1ccccc1 | u | u |
| CCCN(CCC)C(=O)c1cc2c(=O)n3cccc(C)c3nc2n1C | 2% | u |
| COc1ccc(C)cc1NS(=O)(=O)c1c(C(=O)N2CCC(C)CC2)c(C)n(C)c1C | -9% | 10% |
| Cc1ccccc1Nc1nc(-c2cccc(Cl)c2)c2c(n1)-c1ccccc1OC2 | -11% | 13% |
| CCN(CC)CCc1nc(-c2ccccc2)no1 | 7% | x |
| CCc1ccccc1N(CC)C(=O)Cn1nc(Cc2ccncc2)c2ccccc2c1=O | -28% | u |
| Cc1ccc(Cl)cc1N1CCN(C(=O)c2cccn3c(=O)c4cc(Cl)ccc4nc23)CC1 | 0% | -19% |
| Cc1nnc(NC(=O)c2nc(S(=O)(=O)Cc3ccccc3)ncc2Cl)s1 | u | 13µM* |
| COc1ccc(S(=O)(=O)N(CC(=O)Nc2cccnc2)c2ccc(C)cc2)cc1OC | 2% | -22% |
| O=C(Nc1ccc(Cl)cc1F)c1cnc2sc(N3CCOCC3)nn2c1=O | u | -1% |
| Cc1ccc2oc(-c3ccc(C)c(NC(=O)C(C)(C)Oc4ccc(Cl)cc4)c3)nc2c1 | 49%[activator] | -7% |
| COc1ccc(-c2noc(CSc3nnc(C)n3-c3ccc(F)cc3)n2)cc1 | -17% | u |
| COCCCNC(=O)c1ccc2nc(CCc3ccccc3)oc2c1 | 14% | 1% |
| COc1cc2c(cc1OC)C(COc1ccc3c(C)cc(=O)oc3c1)N(C(=O)C(C)C)CC2 (configuration not stated) | -11% | 1% |
| Cc1ccc(N(CC(=O)NCc2ccc(OC(C)C)cc2)S(=O)(=O)N(C)C)cc1 | -3% | 19% |
| CCC(C(=O)O)c1ccc(N2Cc3ccccc3C2=O)cc1 (configuration not stated) | 5% | x |
| COc1ccccc1C(=O)NCCn1cc(SCc2ccccc2Cl)c2ccccc21 | u | u |
| Cc1ccc(N(Cc2cccs2)C(=O)c2ccccc2)cc1 | -22% | -14% |
| Cc1cc(Nc2nc3ccccc3c3nnc(C)n23)ccc1Br | -22% | u |
| CCOC(=O)c1ccc(NC(=O)CS(=O)(=O)Cc2nc(-c3ccc(C)cc3)oc2C)cc1 | u | -10% |
| COc1ccc(N2CCN(C(=O)c3ccc4nc(N5CCC(C)CC5)sc4c3)CC2)cc1 | 2.2µM* | -12% |
| Cc1nn2c(=O)cc(COC(=O)c3cccc(NC(=O)COc4ccccc4Cl)c3)nc2s1 | -10% | 0% |
| CCCCC(=O)OC1=C(C(C)=O)N(Cc2ccccc2)S(=O)(=O)c2ccccc21 | -25% | u |
| Cc1ccc(OCCSc2nc3ccc(NC(=O)c4ccc(F)cc4)cc3s2)cc1 | -4% | -20% |
| COc1ccccc1C(=O)Nc1c(C(=O)Nc2cc(Cl)ccc2C)sc2nc(C)cc(C)c12 | -9% | 3% |
| Cc1ccc(NC(=O)Cn2cc(S(=O)(=O)Cc3ccccc3)c3ccccc32)cc1C | u | u |
| CCn1c(=O)cc(SCC(=O)NCc2ccc(F)cc2Cl)c2ccccc21 | -25% | u |
| COC(=O)Cc1c(C)c2ccc3c(c2oc1=O)CN(Cc1ccc(C)cc1)CO3 | -6% | 3% |
| Cc1nc(C)c(CCNS(=O)(=O)c2ccc(F)cc2)s1 | -31% | -20% |
| CN(Cc1ccccc1)S(=O)(=O)c1nnc(NC(=O)c2ccccc2Cl)s1 | -8% | -30% |

Rewritten with each value named: part of the list above.
COc1ccccc1C(=O)Nc1c(C(=O)Nc2cc(Cl)ccc2C)sc2nc(C)cc(C)c12
- HTT promoter inh = -9%
- PMP22 txn prim = 3%
Cc1ccc(NC(=O)Cn2cc(S(=O)(=O)Cc3ccccc3)c3ccccc32)cc1C
- HTT promoter inh = u
- PMP22 txn prim = u
CCn1c(=O)cc(SCC(=O)NCc2ccc(F)cc2Cl)c2ccccc21
- HTT promoter inh = -25%
- PMP22 txn prim = u
COC(=O)Cc1c(C)c2ccc3c(c2oc1=O)CN(Cc1ccc(C)cc1)CO3
- HTT promoter inh = -6%
- PMP22 txn prim = 3%

Further structures:
| compound | HTT promoter inh | PMP22 txn prim |
| --- | --- | --- |
| COc1cccc(Nc2nc3ccc(C)cc3nc2-n2nc(C)cc2C)c1 | 6% | 13% |
| CCSc1ncc(Cl)c(C(=O)Nc2nnc(CC)s2)n1 | -5% | -1% |
| Cc1c(C(=O)OC(C)C)sc(NC(=O)C2c3ccccc3Oc3ccccc32)c1C(=O)OC(C)C | u | -29% |
| CSc1cccc(Nc2cc(C(=O)NCCc3ccc(Cl)cc3)c3ccccc3n2)c1 | u | u |
| Cc1ccc(-c2nc3cc(C(C)C)ccc3o2)cc1NC(=O)c1cc2ccccc2o1 | u | u |
| COc1cccc(CC(=O)Nc2ccc(-c3nc4ccccc4s3)cc2)c1 | 36%[activator] | u |
| COC(=O)c1scc(-c2ccc(C)cc2)c1S(=O)(=O)Nc1c(C)cc(C)cc1C | -7% | 22% |
| CCOC(=O)c1cc(-c2ccccc2)n(-c2cccc(C(=O)N(C)c3ccc(C)cc3)c2)c1C | u | u |

The results go on.
Values run as follows: HTT promoter inh | PMP22 txn prim
Cc1ccc(NC(=O)CSc2nc3ccc(NC(=O)c4ccco4)cc3s2)cc1
    -23% | -46%
CCOC(=O)c1c(NC(=O)c2ccc(OC)cc2)sc2c1CCCCC2
    -7%[11.5 µM] | -31%
CC1(C)S[C@@H]2[C@H](NC(=O)C(c3ccccc3)S(=O)(=O)O)C(=O)N2[C@H]1C(=O)O (some centres not stated)
    6% | x
COc1cccc(NC(=O)CC2Oc3ccccc3NC2=O)c1 (configuration not stated)
    4% | 3%
CCOC(=O)c1c(-c2ccccc2)oc2ccc(OCc3cccc(Br)c3)cc12
    -18% | 2%
COc1ccc(S(=O)(=O)NCc2ccc(C(=O)NCc3ccccc3)cc2)cc1
    -15% | -14%
Cc1ccc(NC(=O)CCSc2nc(-c3ccc4c(c3)OCO4)cc(C(F)(F)F)n2)c(C)c1
    4% | -29%
CC(=O)c1cccc(NC(=O)CN2C(=O)c3ccccc3Sc3ncccc32)c1
    -15% | u
COc1ccccc1N1CCN(C(=O)C(CCSC)NS(=O)(=O)c2ccc3c(c2)oc(=O)n3C)CC1 (configuration not stated)
    -16% | 8%
Cc1ccc2c(CN3CCN(c4ccc(Cl)cc4)CC3)cc(=O)oc2c1
    4% | u
COc1ccc(C)cc1NC(=O)c1cc(S(=O)(=O)N2CCC(C)CC2)ccc1F
    u | u
Cc1ccc(Sc2c(C)nn(C(=O)COc3ccc(F)cc3)c2C)cc1
    -12% | -9%
CC1CCN(S(=O)(=O)c2cc3c4c(c2)C(C)C(=O)N4CCC3)CC1 (configuration not stated)
    -15% | -35%
CCOc1ccc(S(=O)(=O)c2cn(Cc3ccccc3C)c3ccc(OC)cc3c2=O)cc1
    u | 1%
Nc1ccc(S(=O)(=O)Nc2ccc(Cl)nn2)cc1
    1% | x
Cc1cc(-c2ccc(C)c(S(=O)(=O)Nc3ccccc3C(F)(F)F)c2)on1
    u | -85%
CCOC(=O)N1CCc2c(sc(NCc3sccc3C)c2C(=O)Nc2cc(OC)ccc2OC)C1
    -19% | -7%
COc1ccc(NC(=O)Cn2c(=O)n(-c3cccc(C(F)(F)F)c3)c(=O)c3sccc32)cc1
    u | -47%
Cc1ccccc1CNC(=O)c1sc2ncnc(N(C)C3CCCCC3)c2c1C
    u | u
COc1cc(NC(=O)Cn2cnc(S(=O)(=O)N3CCCC3)c2)cc(OC)c1OC
    -4% | u
CCN(CC)c1ccc(NC(=O)c2sc3nc(-c4ccccc4)cn3c2C)cc1
    u | -19%
Cc1cc(C)cc(NC(=O)C(Cc2ccccc2)NS(=O)(=O)c2ccc3c(c2)c(=O)n(C)c(=O)n3C)c1 (configuration not stated)
    -32% | -3%
Cc1noc2ncnc(NCCc3ccccc3)c12
    14µM* | u
Cc1cc(C)cc(-n2ccnc2SCC(=O)Nc2nc3ccc(C)cc3s2)c1
    -2% | -35%
CC[C@H]1OC(=O)[C@H](C)[C@@H](O[C@H]2C[C@@](C)(OC)[C@@H](O)[C@H](C)O2)[C@H](C)[C@@H](O[C@@H]2O[C@@H](C)C[C@H](N(C)C)[C@@H]2O)[C@](C)(O)C[C@@H](C)C(=O)[C@H](C)[C@@H](O)[C@]1(C)O
    0% | x
CCc1ccc2oc(C(=O)Nc3cc(Cl)ccc3OC)cc(=O)c2c1
    0% | 4%
Cc1c2cnn(CC(=O)NCc3ccc(F)cc3)c(=O)c2c(C)n1Cc1ccccc1Cl
    -25% | u
COC(=O)c1ccccc1NC(=O)Cn1nc(C)c2nn(-c3ccc(Cl)cc3)c(C)c2c1=O
    -16% | u
CCc1ccc(NC(=O)CN(c2ccc(C)cc2)S(=O)(=O)c2cccs2)cc1
    3% | u
Cc1nn(C(C)C(=O)N2CCN(c3ccc(F)cc3)CC2)c(=O)c2c1sc1ccccc12 (configuration not stated)
    -6% | -30%
O=C(CCC1N=C2c3ccccc3N=C(SCC(=O)Nc3ccc(F)cc3)N2C1=O)NCc1cccs1 (configuration not stated)
    u | u
CCOc1ccccc1NC(=O)Cn1c(=O)n(Cc2cccs2)c(=O)c2cccnc21
    -10% | 9%
COc1cc(NS(=O)(=O)c2ccc(NC(=O)c3cccc(F)c3)cc2)nc(OC)n1
    -6% | -30%
Cc1ccc(NC(=O)Cn2nc(-c3ccncc3)ccc2=O)cc1Cl
    -6% | 9%
COc1ccccc1-c1noc(-c2ccc(NCCc3ccccc3)c([N+](=O)[O-])c2)n1
    3% | -5%
Cc1cc(NCc2ccccc2Cl)n2cnnc2n1
    18µM* | u
Cc1ccc(CCNC(=O)c2ccc3c(c2)N(Cc2cccc(C)c2)C(=O)c2ccccc2S3(=O)=O)cc1
    -4% | 11%
CCCN(CCC)CCCNC(=O)C1CCN(c2nc3ccc(CC)cc3s2)CC1
    45%[activator] | u
COc1cccc2sc(N(Cc3cccnc3)C(=O)C3COc4ccccc4O3)nc12 (configuration not stated)
    -13% | -15%
COc1cc(CNC(=O)c2ccc3c(c2)N(C)C(=O)C2CCCCN32)cc(OC)c1OC (configuration not stated)
    -1% | -14%
COc1ccc(-n2nc(C(=O)N3CCC(C)CC3)c3c4ccccc4n(C)c3c2=O)cc1Cl
    -14% | -13%
Cc1c(Cl)cccc1NC(=O)CCn1c(=O)c2cccn2c2ccccc21
    -7% | -8%
Cc1cccc(C(=O)Nc2ccccc2OCc2cc(=O)n3ccccc3n2)c1
    2% | -8%
CC(=O)c1cccc(NC(=O)CC(c2ccc(C)cc2)N2Cc3ccccc3C2=O)c1 (configuration not stated)
    -18% | -12%
COc1cccc(-c2cn3c(n2)sc2cc(C(=O)NCCC4=CCCCC4)ccc23)c1
    -1% | 3%
O=c1[nH]c2ccccc2n1CCCN1CCN(C(c2ccccc2)c2ccccc2)CC1
    u | x
CCn1cc(C(=O)NCCCN2CCC(C)CC2)c(=O)c2cc(S(=O)(=O)N(C)C3CCCCC3)ccc21
    -7% | u
